FGF22 binding: binders of human FGF22 protein, primary screen, FGF22 synaptogenesis inhibitor project, biophysical, thermal shift, single point; AID 651658, 2012; recombinant FGF22 thermal shift, SYPRO orange fluorescence; percent of sucrose octasulfate shift, DMSO zero; calls only at 9.99 µM; 1.5% of 340,000 active; Fibroblast growth factor 22 (Homo sapiens), Q9HCT0;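 active = melting point raised past a set limit in the mean and every replicate; three in four hits are not shown here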
T cruzi repl: inhibitors of intracellular T. cruzi growth, primary screen, luminescence, NIH3T3 host cells. T. cruzi beta-gal in NIH3T3, 90 h. inhibition, % (no concentration beside the values). 1.4% of 300,000 active;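 active = mean inhibition across valid replicates above about 55%, limit read from the data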;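 note: signal also drops with host cell toxicity which is not excluded here; 0% = plate median of DMSO wells and 100% = zero luminescence signal; higher percent means less beta-gal luminescence so fewer parasites; stock transfer was 50 nL into about 50 µL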
Ecoli growth: E. coli growth inhibition, primary screen, OD600; Escherichia coli growth, 23 h; active compounds read low; OD600 absorbance (concentration not given with the values); 0.21% of 330,000 active;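 active = OD600 absorbance below the run mean of sample wells minus 3.6 SD, in any replicate, cut at about 0.56 in these data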;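 note: stock transfer was 300 nL into about 60 µL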
UCH37 inh: inhibitors of human UCH37 deubiquitinase, primary screen, biochemical, Ub-AMC cleavage, fluorescence; purified proteasome/UCH37; inhibition, % (concentration not given with the values); 0.33% of 330,000 active;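 active = mean of two replicates above 20%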;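 note: 0% = compound-free wells with enzyme and 100% = wells lacking proteasome; stock transfer was 100 nL into about 20 µL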
Target sequence (Q9Y5K5 whole entry, looked up): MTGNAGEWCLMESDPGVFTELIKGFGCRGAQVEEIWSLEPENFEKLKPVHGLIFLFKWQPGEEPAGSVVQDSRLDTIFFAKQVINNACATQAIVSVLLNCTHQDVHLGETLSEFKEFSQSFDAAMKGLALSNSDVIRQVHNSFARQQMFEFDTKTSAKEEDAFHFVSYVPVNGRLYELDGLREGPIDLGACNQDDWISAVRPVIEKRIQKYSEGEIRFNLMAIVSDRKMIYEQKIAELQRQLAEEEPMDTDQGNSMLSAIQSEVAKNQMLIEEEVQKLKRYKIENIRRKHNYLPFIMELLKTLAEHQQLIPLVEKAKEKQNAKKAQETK
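assay system = human UCH37 enzyme supplied as purified proteasome complex | amount = proteasome at 0.15 nM in the dispensed enzyme solution | schedule = 30 min compound-proteasome preincubation then 25 min substrate reaction, room temperature | measured by = fluorescence, ex 355 nm, em 460 nm | benchmarks = no-proteasome wells (full inhibition) and compound-free wells (no inhibition)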
Bfl-1 A1 inh: caspase 3/7 activation in MEF A1-2A-BIM cells, primary screen, A1 inhibitor project, cell-based, luminescence, HTS. caspase activation, % (test concentration not listed). AID 2462, 2010. 0.066% of 330,000 active. Caspase-Glo 3/7 luminescence, 3 h; percent of clofoctol response, vehicle zero;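 active = over half of replicate activation scores above 10%, or exactly half above 10 with the replicate mean above 10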;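 note: wells of about 30 µL received 50 nL stock; many hits fall short of the cut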
Beta apoptosis: inhibitors of cytokine-induced beta cell apoptosis, primary screen, luminescence. INS-1E cytokine-induced death, ATP luminescence, 48 h; percent of positive-control rescue, neutral wells zero. protection from apoptosis, % (concentration not given with the values). 0.8% of 300,000 active. AID 435005, 2010;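 active = all replicates at 75% or more, or half of them and the mean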;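 note: 0% = cytokine-treated negative control wells and 100% = positive control rescue; higher means more ATP so stronger rescue from cytokine killing; wells of about 40 µL received 100 nL stock; the first replicate is given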
AF4-AF9 inh: inhibitors of AF4 peptide binding to AF9, primary screen, biochemical, AlphaScreen, biotin-AF4 peptide, FLAG-AF9, single point; Protein AF-9 (Homo sapiens), P42568; inhibition, % at 10 µM; 0.47% of 350,000 active; AID 651704, 2012;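 active = every replicate reaching a set inhibition limit, whatever the replicate mean, cut at about 25% in these data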;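 note: 0% = plate neutral control median and 100% = total signal loss; the record names both 10 and 1 µM as test concentration; the first replicate is given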
Target sequence (P42568 whole entry, looked up): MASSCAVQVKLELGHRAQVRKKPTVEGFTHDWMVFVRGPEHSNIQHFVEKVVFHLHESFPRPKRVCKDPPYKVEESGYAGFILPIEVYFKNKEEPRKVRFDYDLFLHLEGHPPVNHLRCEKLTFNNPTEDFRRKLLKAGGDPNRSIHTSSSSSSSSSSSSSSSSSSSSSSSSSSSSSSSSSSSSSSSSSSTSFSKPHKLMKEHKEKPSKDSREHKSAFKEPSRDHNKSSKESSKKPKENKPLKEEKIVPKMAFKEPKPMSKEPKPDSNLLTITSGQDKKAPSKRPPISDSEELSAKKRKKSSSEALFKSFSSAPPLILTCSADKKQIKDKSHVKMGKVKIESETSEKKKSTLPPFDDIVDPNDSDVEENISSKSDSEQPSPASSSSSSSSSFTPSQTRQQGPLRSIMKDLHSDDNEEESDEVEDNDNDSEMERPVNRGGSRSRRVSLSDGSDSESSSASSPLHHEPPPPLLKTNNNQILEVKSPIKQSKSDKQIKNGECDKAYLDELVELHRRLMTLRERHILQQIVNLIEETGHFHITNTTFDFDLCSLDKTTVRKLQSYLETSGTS
Ecoli rRNA inh: reduced GFP signal of wild-type E. coli, primary screen, bacterial rRNA inhibitor project, GFP/RFP fluorescence, OD600, single point | GFP signal change (wild-type ribosome), % (test concentration not listed) | E. coli WT GFP vs humanized-ribosome RFP mutants, 24 h; active compounds read low; DMSO median 0, no signal -100 | 1.6% of 350,000 active;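 active = significant combined selectivity score with lowered wild-type GFP, culture density cut under 30%, mutant RFP and density less affected; inactive = any of these conditions unmet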; note: one replicate is shown; some compounds called inactive have numbers as strong as hits
Ecoli rRNA inh OD600: recorded beside Ecoli rRNA inh, whose call it bears; OD600 change, %; measured here: OD600 growth;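 optical density of the mix in the first replicate; 0 = DMSO median and -100 = no signal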
Ecoli rRNA inh RFP: also measured in Ecoli rRNA inh; calls as there; RFP signal change, %; measured here: RFP humanized mutant strains;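 first replicate; 0 = DMSO median and -100 = no signal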
* hit, by the source's call; i = inactive; . = not tested or not shown.

Letter code – A = FGF22 binding; B = T cruzi repl; C = Ecoli growth; D = UCH37 inh; E = Bfl-1 A1 inh; F = Beta apoptosis; G = AF4-AF9 inh; H = Ecoli rRNA inh; I = Ecoli rRNA inh OD600; J = Ecoli rRNA inh RFP
> COC(=O)Nc1ccc(S(=O)(=O)NCCCCCC(=O)O)cc1
  A: i | B: 0 | C: 0.7 | D: 2.9 | E: -0.4 | F: 2 | G: -20 | H: 5 | I: 13 | J: -0.7

> CC(=O)Nc1ccccc1OCC(=O)c1cc(C)n(Cc2cccs2)c1C
  A: . | B: -45 | C: 0.71 | D: 3.2 | E: 0.8 | F: 111* | G: . | H: . | I: . | J: .

> O=C(Nc1nc(-c2ccco2)cs1)c1ccccc1
  A: . | B: 2 | C: 0.71 | D: -1.6 | E: -0.3 | F: -8 | G: . | H: . | I: . | J: .

> Clc1ccc(-n2nnnc2-c2cnc3ccc(Cl)cc3c2-c2ccccc2)cc1
  A: i | B: 44 | C: 0.72 | D: 2.8 | E: 0.3 | F: 6 | G: -3.7 | H: 5 | I: 18 | J: 1.2

> Cc1ccc(-n2c(-c3cccs3)nc3nc4ccccc4nc32)cc1
  A: i | B: -4 | C: 0.71 | D: -76 | E: 0.4 | F: -1 | G: 3.9 | H: 13 | I: 4 | J: -2.1

> CC1=C(C(=O)OCC2CCCO2)C(c2ccccc2)C2=C(CCCC2=O)N1 (centres undefined)
  A: . | B: 4 | C: 0.67 | D: -121 | E: -0.6 | F: . | G: -1.1 | H: 1 | I: -2 | J: -2.1

> CCc1nnc2n1N=C(c1ccccc1)CS2
  A: i | B: 4 | C: 0.68 | D: 0.7 | E: 0.2 | F: -4 | G: -2.8 | H: 2 | I: 1 | J: -2.6

> CCOC(=O)C(Cc1ccccc1)C(=O)Nc1cccc(C)c1 (centres undefined)
  A: . | B: 9 | C: 0.69 | D: -3.7 | E: 0.9 | F: -9 | G: . | H: . | I: . | J: .

> COc1ccc(C(=O)CC2OC(=O)c3ccccc32)cc1OC (centres undefined)
  A: . | B: 0 | C: 0.68 | D: 4.9 | E: -0.8 | F: -2 | G: . | H: -3 | I: -10 | J: 0.9

> COC(=O)[C@H](C)NC(=O)NC(C)CCc1ccccc1 (some centres undefined)
  A: i | B: -6 | C: 0.7 | D: 5.7 | E: 0.5 | F: -6 | G: -7.1 | H: 21 | I: 7 | J: 3.5

A second format for 4 compounds above:
structure: Cc1ccc(-n2c(-c3cccs3)nc3nc4ccccc4nc32)cc1
  FGF22 binding: i
  T cruzi repl: -4
  Ecoli growth: 0.71
  UCH37 inh: -76
  Bfl-1 A1 inh: 0.4
  Beta apoptosis: -1
  AF4-AF9 inh: 3.9
  Ecoli rRNA inh: 13
  Ecoli rRNA inh OD600: 4
  Ecoli rRNA inh RFP: -2.1
structure: O=C(Nc1nc(-c2ccco2)cs1)c1ccccc1
  FGF22 binding: .
  T cruzi repl: 2
  Ecoli growth: 0.71
  UCH37 inh: -1.6
  Bfl-1 A1 inh: -0.3
  Beta apoptosis: -8
  AF4-AF9 inh: .
  Ecoli rRNA inh: .
  Ecoli rRNA inh OD600: .
  Ecoli rRNA inh RFP: .
structure: COc1ccc(C(=O)CC2OC(=O)c3ccccc32)cc1OC (centres undefined)
  FGF22 binding: .
  T cruzi repl: 0
  Ecoli growth: 0.68
  UCH37 inh: 4.9
  Bfl-1 A1 inh: -0.8
  Beta apoptosis: -2
  AF4-AF9 inh: .
  Ecoli rRNA inh: -3
  Ecoli rRNA inh OD600: -10
  Ecoli rRNA inh RFP: 0.9
structure: COC(=O)[C@H](C)NC(=O)NC(C)CCc1ccccc1 (some centres undefined)
  FGF22 binding: i
  T cruzi repl: -6
  Ecoli growth: 0.7
  UCH37 inh: 5.7
  Bfl-1 A1 inh: 0.5
  Beta apoptosis: -6
  AF4-AF9 inh: -7.1
  Ecoli rRNA inh: 21
  Ecoli rRNA inh OD600: 7
  Ecoli rRNA inh RFP: 3.5

Additional structures follow.
Letter code – A = FGF22 binding; B = T cruzi repl; C = Ecoli growth; D = UCH37 inh; E = Bfl-1 A1 inh; F = Beta apoptosis; G = AF4-AF9 inh; H = Ecoli rRNA inh; I = Ecoli rRNA inh OD600; J = Ecoli rRNA inh RFP
> Cc1ccccc1OCC(O)Cn1c(=N)n(Cc2ccccc2)c2ccccc21 (centres undefined)
  A: . | B: 55* | C: 0.63 | D: 5.7 | E: -0.5 | F: 64 | G: -39 | H: -55 | I: -82 | J: -31

> COc1ccc(Cn2c(C3CC3)nc3ccc(NC(=O)c4cccnc4)cc3c2=O)cc1
  A: . | B: 11 | C: 0.71 | D: -0.4 | E: -0.4 | F: 8 | G: . | H: . | I: . | J: .

> CCCOC1CCCN(C(=O)CCc2nnc(-c3ccc4c(c3)OCO4)o2)C1 (centres undefined)
  A: i | B: 8 | C: 0.67 | D: 0.0 | E: 1.1 | F: 3 | G: -0.9 | H: -1 | I: 3 | J: -1.7

> Cc1cc(N)n2nc(-c3ccccc3)cc2n1
  A: i | B: -13 | C: 0.63 | D: -14 | E: -7.6 | F: 7 | G: -2.6 | H: -20 | I: -20 | J: -16

> O=C(N/N=C/c1cc(Br)c(Br)o1)c1ccc2c(c1)OCCO2
  A: i | B: 1 | C: . | D: . | E: -1.1 | F: -4 | G: -0.2 | H: 3 | I: 5 | J: 3.2

> CCOC(=O)c1ccc(NC(=O)c2nc[nH]c2C(=O)NCc2ccccc2)cc1
  A: i | B: -11 | C: 0.72 | D: -1.2 | E: 1.3 | F: 5 | G: -0.2 | H: 9 | I: 11 | J: -2.4

> O=C(CSc1ccccn1)Nc1ccc(Br)cn1
  A: . | B: 10 | C: 0.75 | D: 5.2 | E: 0.0 | F: -2 | G: . | H: . | I: . | J: .

> CC(C)(CNC(=O)COc1ccccc1Cc1ccccc1)N1CCOCC1
  A: i | B: 18 | C: 0.74 | D: 2.1 | E: -0.6 | F: -1 | G: 0.8 | H: -7 | I: -10 | J: 0.0

> Cc1cc(N/N=C/c2cccc(Cl)c2)nc(-n2nc(C)cc2C)n1
  A: i | B: 33 | C: . | D: . | E: 0.0 | F: 103* | G: 4.3 | H: 2 | I: -3 | J: 1.6

> O=C(Cn1cnc2c(nnn2Cc2ccc(F)cc2)c1=O)NC1CCCC1
  A: . | B: -4 | C: 0.71 | D: 4.7 | E: -0.5 | F: 0 | G: . | H: . | I: . | J: .

Only Bfl-1 A1 inh, for 6 of the compounds above:
Compound | Bfl-1 A1 inh
Cc1cc(N)n2nc(-c3ccccc3)cc2n1 | -7.6
O=C(N/N=C/c1cc(Br)c(Br)o1)c1ccc2c(c1)OCCO2 | -1.1
CCOC(=O)c1ccc(NC(=O)c2nc[nH]c2C(=O)NCc2ccccc2)cc1 | 1.3
O=C(CSc1ccccn1)Nc1ccc(Br)cn1 | 0.0
CC(C)(CNC(=O)COc1ccccc1Cc1ccccc1)N1CCOCC1 | -0.6
Cc1cc(N/N=C/c2cccc(Cl)c2)nc(-n2nc(C)cc2C)n1 | 0.0

Continued.
Letter code – A = FGF22 binding; B = T cruzi repl; C = Ecoli growth; D = UCH37 inh; E = Bfl-1 A1 inh; F = Beta apoptosis; G = AF4-AF9 inh; H = Ecoli rRNA inh; I = Ecoli rRNA inh OD600; J = Ecoli rRNA inh RFP
> Cc1ccc(C(=O)NCCSCc2ccc(Cl)cc2Cl)cc1[N+](=O)[O-]
  A: i | B: 15 | C: 0.72 | D: 6.0 | E: 0.0 | F: -8 | G: -2.7 | H: -13 | I: -13 | J: 4.1

> Cc1cc(NC(=O)COC(=O)c2cccc(OCc3ccccc3)c2)no1
  A: . | B: -18 | C: 0.76 | D: 1.1 | E: -5.8 | F: -6 | G: . | H: . | I: . | J: .

> O=C(NCc1ccccn1)c1cccc(S(=O)(=O)Nc2ccc(F)cc2)c1
  A: i | B: . | C: 0.67 | D: 0.7 | E: . | F: . | G: 2.8 | H: -1 | I: -1 | J: 2.3

> CCOC(=O)C1CCCN(Cc2ccc(O)c(OC)c2)C1 (centres undefined)
  A: . | B: 58* | C: 0.7 | D: 2.2 | E: 0.5 | F: -8 | G: . | H: . | I: . | J: .

> O=C(NCc1ccco1)C(=O)NCC1OCCN1S(=O)(=O)c1ccc(Br)cc1 (centres undefined)
  A: i | B: -11 | C: 0.7 | D: 5.4 | E: 1.1 | F: -8 | G: 0.3 | H: 2 | I: 0 | J: 0.3

> COc1ccc(S(=O)(=O)NCc2ccco2)c2ccccc12
  A: i | B: -25 | C: 0.64 | D: 0.2 | E: 0.6 | F: -9 | G: -3.5 | H: -26* | I: -20* | J: -2.5*

> CCN1CCCc2cc(CN(CCN3CCOCC3)C(=S)Nc3cccc(OC)c3)ccc21
  A: i | B: 41 | C: 0.67 | D: 2.1 | E: 0.3 | F: 0 | G: 11 | H: 2 | I: -5 | J: 6.6

> COc1cccc(/C=C/C(=O)N2CCN(S(=O)(=O)c3ccccc3)CC2)c1OC
  A: i | B: -11 | C: 0.69 | D: -0.6 | E: 0.0 | F: 4 | G: -34 | H: -5 | I: -2 | J: 2.8

Screens as filed in PubChem BioAssay.

The list is partial; count on the stated rates, not on these rows.
